Prx2 Sm inh: Schistosoma mansoni Prx2 inhibition | S. mansoni Prx2 activity coupled to TGR/GSH (TGR is thioredoxin glutathione reductase), NADPH fluorescence loss, qHTS; some inactives read as strong as hits | Potency, µM | actives 0.07% (n = 65,000); active means full or partial inhibition curve with a strong effect at the top dose; inconclusive means weaker partial or single-point curve; inactive means no accepted curve; further: series up to 57 µM; many of its hits are not listed in these tables
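Activity is read as the drop in NADPH fluorescence (365/450 nm), recorded every 30 sec for 8 min after H2O2 addition. Prx2 is coupled to TGR-driven NADPH oxidation through glutathione, in phosphate buffer pH 7.4.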
Anthrax LT inh: blocks cellular internalization of anthrax lethal toxin. Cells, anthrax lethal toxin internalization, FRET ratio (460/530). Potency, µM (highest dose often 40 µM), for inactives: at the highest dose activity change, negative = inhibition, most hits filed as inhibitors. actives 0.67% (n = 70,000); active = well fitted falling ratio curve with the 530 nm signal flat; inconclusive = other ratio curves, or a change in one channel alone; inactive = flat curves in the ratio and both channels; the % refers to the ratio; further: on the % scale 0 is the no-effect control and ±100 the full control effect; nearly all actives have a fitted effect of over 50% in size; tested in ME-180 cells; beta-lactamase reporter
Starred values were filed as active, the others as inactive; ? = inconclusive; nt = no result given; & = joins results of further samples; [ ] = another dose, or the depositor's remark. Potency means the concentration at half of the fitted maximal effect. Only part of the results is shown, so the mix of outcomes need not match the whole.

Every second line gives: Prx2 Sm inh	Anthrax LT inh
COC(=O)NCCOc1cc(C)ccc1C
→ >57	-18.8%
CN1C(=O)COc2c(C(=O)N[C@@H]3CN4CCC3CC4)cc(Cl)cc21
→ >57	?
O=C(Oc1cc(=O)oc2ccccc12)c1ccco1
→ >57	12.2%
CC(C)=CC1C(C(=O)Nc2ccc(Br)cn2)C1(C)C (stereo not given)
→ >57	?
C=C(C)COc1ccc2c(C)c(CC(=O)OC)c(=O)oc2c1C
→ >57	-26.2%
Cc1n[nH]c(C)c1-c1nc2ccccc2[nH]1
→ >57	2.6%
O=C(CSc1nnc(Cc2ccccc2)n1-c1ccccc1)N1CCOCC1
→ >57	-3.8%
CN(CCCNC(=O)Cn1cc2c(n1)CCCC2)C1CCCCC1
→ >57	0.0%
CCC(C)(C)n1nnnc1CN1CCSCC1
→ >57	-4.8%
Cc1cc(Nc2ccc(C)c(F)c2)n2ncnc2n1
→ >57	-8.8%
CC(C)N(Cc1ccccc1)S(=O)(=O)N(C)C
→ >57	-11.2%
CCOc1ccccc1NC(=O)CCC(=O)O
→ >57	2.1%
O=C(CSc1nnc(-c2ccncc2)n1-c1ccc(F)cc1)NC(=O)NCc1ccco1
→ >57	3.6%
CCCCc1ccc(Nc2ncnc3nc[nH]c23)cc1
→ >57	4.6%
CCOc1ccccc1-n1c(SCC(=O)N(C(C)C)C(C)C)nnc1-c1cccnc1
→ >57	-3.0%
CCCOc1cccc(OCCSc2nc(C)cc(=O)[nH]2)c1
→ >57	?
O=C1c2ccccc2NC(c2ccc3c(c2)OCCO3)N1c1ccc2c(c1)OCCO2 (stereo not given)
→ >57	nt
CCN1CCN(C(c2ccccc2F)c2nnnn2Cc2ccc3c(c2)OCO3)CC1 (stereo not given)
→ >57	-25.4%
Cc1ccc(-n2c(O)c(C=NC3CCCC3)c(=O)[nH]c2=O)c(C)c1
→ >57	-0.2%
CC(C)NCC(O)COCc1ccc(Cl)cc1 (stereo not given)
→ >57	-16.7%
O=C(CCN1C(=O)C2CC=C(Cl)CC2C1=O)N1CCCCC1 (stereo not given)
→ >57	?
O=C(CSc1nnc2ccccn12)NCCN1C(=O)CSC1=O
→ >57	-18.9%
Cc1c(C)n(C(=O)CN2CCC(C(N)=O)CC2)c2ccccc12
→ >57	1.8%
CCOc1ccc(OCc2ccc(C(=O)NCc3ccncc3)o2)cc1
→ >57	4.9%
CN1CCN(P(=O)(c2ccccc2)c2nc3ccccc3s2)CC1 (stereo not given)
→ >57	9.9%
O=C(NCCn1cc(SCC(=O)N2CCOCC2)c2ccccc21)c1ccccc1
→ >57	6.3%
CN1CCCC2(CCN(C(=O)c3cccn3C)CC2)C1
→ >57	13.6%
NCCC[C@@H](CC(=O)N[C@@H]1CCNC[C@H]1C(=O)N[C@H](CC(=O)N[C@@H](CCC(=O)O)CC(=O)O)Cc1c[nH]c2ccccc12)NC(=O)C[C@H](Cc1ccccc1)NC(=O)[C@@H]1CCCC[C@H]1N
→ >57	?
CCN(CC)c1ccc2c(c1)C(=O)N(C)C2=O
→ >57	?
Cc1nnsc1-c1nc2ccccc2[nH]1
→ >57	9.1%
O=C(NCCc1ccc(Cl)cc1)c1nnc(Cc2ccc(Cl)cc2)o1
→ >57	5.5%
COCCNc1cc(-c2ccccc2CN(C)C)ncn1
→ >57	-8.1%
O=C(C1CCCN(c2nnc(-n3cccc3)s2)C1)N1CCN(c2ccccc2)CC1 (stereo not given)
→ >57	?
O=c1cc(N2CCc3ccccc3C2)[nH]c(=O)n1-c1ccc(Br)cc1
→ >57	7.8%
Nn1c(SCC(=O)Nc2ccccc2)nnc1-c1cccnc1
→ >57	-11.3%
CCCN1CCN(C(c2cc3cc4c(cc3[nH]c2=O)OCO4)c2nnnn2C(C)(C)C)CC1 (stereo not given)
→ >57	-2.3%
OCC1(c2cc(C(F)(F)F)n[nH]2)CCCCC1
→ >57	2.6%
O=C(Nc1ccc(F)cc1)C1CCC(N2C(=O)c3ccccc3C2=O)CC1 (stereo not given)
→ nt	-4.5%
CCOC(=O)C1=C(C)SC2=NS(=O)(=O)CCN21
→ >57	-3.5%
c1ccc(-c2cccc(-c3ccccn3)n2)nc1
→ >57	?
Cc1ccccc1CSc1nnc(C)c(=O)[nH]1
→ >57	-10.4%
CN(C(=O)C1CCOC1)c1nnc(-c2cccnc2)s1 (stereo not given)
→ >57	-8.8%
COCCNC(=O)c1ccccc1-c1nc(-c2ccccc2Cl)no1
→ >57	?
CCn1ccc(C(=O)Nc2ccc(S(=O)(=O)Nc3ccccc3OC)cc2)n1
→ nt	-17.0%
O=c1c(-c2ccc(F)cc2)nc2cncnc2n1C1CC1
→ >57	-3.2%
O=C(NCc1ccccc1)c1cc(=O)nc2sc(-c3ccccc3)nn12
→ >57	26.0%
C[C@H](O)Cn1cnc2c1c(=O)n(C)c(=O)n2C
→ >57	-21.2%[3.58 µM]
CC(Sc1nncn1C)C(=O)Nc1nnc(C(C)C)s1 (stereo not given)
→ >57	12.4%
CN(c1ccccc1)c1nc2ccsc2c(=O)s1
→ >57	-10.9%
O=c1oc2ccccc2c(O)c1/C=N/c1ncccn1
→ >57	11.3%
Cc1nc2cnc(Oc3ccccc3)nc2n(C2CC2)c1=O
→ >57	-14.8%
CCC1(CCSC(=N)N)C(=O)NC(=O)NC1=O
→ >57	-0.5%[8 µM]
COCC(=O)Nc1ccc(Nc2ccccc2)cc1
→ >57	-16.1%
Cc1nnc(SC(C)C(=O)NCC2CCCO2)n1-c1ccccc1 (stereo not given)
→ >57	-2.8%
CCN(CC)CC(C)(C)NS(=O)(=O)c1ccc(Cl)cc1
→ >57	-8.2%
Cc1ccc(-c2n[nH]c(=O)c3ccccc23)cc1N
→ >57	-12.1%
Cc1cc(C)n(-c2ccc(C(=O)Nc3sccc3C(N)=O)cc2)n1
→ >57	-27.0%
NC(=O)CCn1nc(-c2ccc(Cl)cc2)c2ccccc2c1=O
→ >57	6.5%
CCCCc1cc2c(c(NC(C)=O)n1)c(=O)oc1ccccc12
→ >57	-6.7%
CC(=O)c1ccc(N2CCN(C(=O)c3ccco3)CC2)c(F)c1
→ >57	-8.6%

Carrying on:
Every second line gives: Prx2 Sm inh	Anthrax LT inh
CSc1n[nH]c(NCc2cccs2)n1
→ >57	-1.0%
O=C(CCCCC(=O)Nc1c(I)cc(I)c(C(=O)O)c1I)Nc1c(I)cc(I)c(C(=O)O)c1I
→ >57	?
COc1ccc(-n2c(Cc3cccn3C)nnc2SCC(=O)Nc2cc(C)cc(C)c2)cc1
→ >57	?
Cc1cc2cc(CN(Cc3ccc4c(c3)OCO4)Cc3nnnn3C3CCCC3)c(=O)[nH]c2cc1C
→ >57	-10.0%
O=C(CSc1nnc(Cc2ccccc2)n1C1CCCCC1)N1CCOCC1
→ >57	-8.7%
CC(=O)OCC(OC(C)=O)C(OC(C)=O)C(OC(C)=O)C(=O)Nc1ccccc1C (stereo not given)
→ >57	8.6%
CC(C)Oc1cccc(-n2c(CCc3c[nH]c4ccc(Br)cc34)nc3ccccc3c2=O)c1
→ >57	?
Cc1oc2c(CN3CCOCC3)c(O)ccc2c(=O)c1-c1ccc(Br)cc1
→ >57	?
Cc1nn(-c2ccccc2)c(OC(=O)c2cccs2)c1S(=O)(=O)c1ccccc1
→ >57	23.5%
N#CC1=C(N)SC(N)=C(C#N)C1c1c(Cl)cccc1Cl
→ >57	-14.9%
COCCOC(=O)C1=C(C)N=C2SCCC(=O)N2C1c1cccc(Br)c1 (stereo not given)
→ >57	6.1%
COc1ccc(-c2nnc(SCC(=O)NC3CCCCC3)o2)cc1OC
→ >57	1.5%
O=C(CN1CCSCC1)N1CCc2[nH]c3ccc(Br)cc3c2C1
→ >57	?
Cn1c(N2CCCC2)nc2c1c(=O)n(Cc1cccc(F)c1)c(=O)n2C
→ >57	11.3%
C=CCNc1nc2c(c(=O)n(C)c(=O)n2C)n1CC
→ >57	12.8%
CCOc1ccc(NS(=O)(=O)c2ccc(OCC(=O)NCCCOC)cc2)cc1
→ >57	nt
O=C(c1cccc2c1C(=O)N(Cc1cccnc1)C2)N1CCN(c2ccccc2)CC1
→ >57	-15.6%
O=S(=O)(NCCCCCNS(=O)(=O)c1ccc(F)cc1)c1ccc(F)cc1
→ >57	-3.6%
O=C(NCC(=O)N1CCC(N2CCCCC2)CC1)C1CCCCC1
→ >57	-7.2%
N[C@@H](Cc1c[nH]c2ccccc12)c1nnc(SCc2c(F)cccc2Cl)o1
→ >57	-15.0%
COC(=O)Nc1sccc1C(=O)Nc1sccc1C(=O)OC
→ >57	-5.7%
CC(C)n1c(-c2cccnc2)nc2cnccc21
→ >57	4.7%
Clc1ccc(-c2nnc(-c3ccccc3)o2)c(Cl)c1
→ >57	0.5%
COc1ccc(C[C@H]2c3cc(OC)c(OC)cc3CCN2C)cc1OC
→ >57&>57	?
C=CCn1c(SCC(=O)N2CCOCC2)nc2sc3c(c2c1=O)CCCC3
→ >57	?
N=C(N)SCCc1ccncc1
→ >57	-8.0%[8 µM]
N#Cc1c(SCC(N)=O)nsc1SCc1ccccc1Cl
→ >57	nt
CC(C)(CO)NC(=O)CCCOc1ccc(Cl)cc1Cl
→ nt	-12.9%
COc1cccc2cc(C(=O)C3=C(O)C(=O)N(CCN(C)C)C3c3ccc(F)cc3)oc12 (stereo not given)
→ >57	2.6%
Clc1ccccc1COc1ccccc1-c1nnco1
→ >57	-2.9%
CCOC(=O)CN1CC23C=CC(O2)C(C(=O)Nc2ccc4c(c2)OCO4)C3C1=O (stereo not given)
→ >57	1.5%
COc1cccc(N2CC(O)Cn3c2nc2c3c(=O)n(CCCc3ccccc3)c(=O)n2C)c1 (stereo not given)
→ >57	5.4%
CC(C)Nc1nc(NC(C)C)nc(N(C)C#N)n1
→ >57	-12.7%
CC[N+](C)(CC)CC(=O)Nc1c(C)cccc1C
→ >57	5.3%
CC(C)OC(=O)Cc1ccccc1
→ nt	1.8%
CC(C)C(=O)N[C@@H]1CCCN1C(=O)/C=C\c1ccccc1
→ nt	-6.9%[8 µM]
Cc1ccc(-c2[nH]n3c(=O)c4c(nc3c2C)CCCC4)cc1
→ >57	-5.8%
Cc1noc(C)c1S(=O)(=O)Nc1ccc(C(=O)NC2CCCCC2)cc1
→ >57	-8.6%
COc1ccccc1CNc1ncnc2ccc(-c3ccc(N(C)C)cc3)cc12
→ >57	-22.0%
CCN1C(=O)/C(=C2\SC(=S)N(CC3CCCO3)C2=O)c2ccccc21 (stereo not given)
→ nt	9.4%
CN(C(=O)CSc1nnc(-c2ccco2)o1)C1CCCCC1
→ >57	-3.3%
O=C(CSc1nnc(-c2ccccc2)o1)c1ccc2c(c1)OCCO2
→ >57	?
O=C(c1ccco1)N1c2ccccc2Sc2ccccc21
→ >57	?
COc1ccc(S(=O)(=O)N(C)CC(=O)Nc2ccccc2SC)cc1
→ >57	-3.0%
Cc1ccc(S(=O)(=O)NC(CN2CCOCC2)=NCCNS(=O)(=O)c2ccccc2)cc1
→ >57	5.1%
CS(=O)(=O)NCCCc1ccccc1
→ nt	-5.8%
CCOC(=O)C1CCCN(S(=O)(=O)c2ccc(Br)c(OC)c2)C1 (stereo not given)
→ >57	-1.4%
CCN(Cc1cc2ccc(C)cc2[nH]c1=O)C(=O)c1ccncc1
→ >57	-1.6%
c1cc(CSSCc2ccncc2)ccn1
→ >57	-2.9%[8 µM]
Nc1cc(C(=O)OCC(=O)NCc2ccco2)ccc1Cl
→ >57	-10.9%
CCCOc1ccc(N2CC(C(=O)Nc3ccccc3C(=O)NCc3ccco3)CC2=O)cc1 (stereo not given)
→ >57	-17.2%
COc1cccc(Cn2c(=O)c(-c3cccc(C#N)c3)nc3cnc(N4CCN(C)CC4)nc32)c1
→ >57	?
C[n+]1ccc(-c2ccncc2)cc1
→ >57	0.9%
O=C1CSC2N1CCNC21CCCCC1 (stereo not given)
→ >57	?
O=C(Nc1cccc(F)c1)N1CCC2(CC1)CCN(C(=O)c1ccncc1)CC2
→ nt	?
Cc1cccc2cc(COC(=O)c3ccco3)c(=O)[nH]c12
→ >57	10.0%
COc1c2ccoc2cc2oc(=O)ccc12
→ >57	?
COc1ccc(Cl)cc1S(=O)(=O)N1CCN(C(=O)c2ccco2)CC1
→ >57	3.6%
COc1ccc(Cn2nnnc2C(c2ccccc2Cl)N2CCN(C)CC2)cc1 (stereo not given)
→ >57	-0.3%
Cc1cc(C)nc(SC2=CS(=O)(=O)c3ccccc32)n1
→ >57	11.4%

An excerpt from above in order of count of non-hydrogen atoms, falling:
Every second line gives: Prx2 Sm inh	Anthrax LT inh
COc1cccc(N2CC(O)Cn3c2nc2c3c(=O)n(CCCc3ccccc3)c(=O)n2C)c1 (stereo not given)
→ >57	5.4%
Cc1noc(C)c1S(=O)(=O)Nc1ccc(C(=O)NC2CCCCC2)cc1
→ >57	-8.6%
Cc1ccc(-c2[nH]n3c(=O)c4c(nc3c2C)CCCC4)cc1
→ >57	-5.8%

Following part.
Every second line gives: Prx2 Sm inh	Anthrax LT inh
COC(=O)C1=C(C)NC2=C(C(=O)CCC2)C1c1coc2ccccc2c1=O (stereo not given)
→ nt	-13.5%
Cc1ccc(-c2cc(C(=O)NCC3CCCO3)no2)cc1 (stereo not given)
→ >57	-13.3%
O=C1c2ccccc2C(=O)N1Cc1nc2ccccc2c(=O)n1CCN1CCOCC1
→ >57	nt
CCN(CC)C(=O)CN(C#N)c1nc(OC)nc(N(C)C)n1
→ >57	-9.8%
CCOC(=O)c1c(-c2ccccc2)c(C(C)=O)c(=O)n(C)c1C
→ >57	2.8%

Screens: PubChem BioAssay, National Center for Advancing Translational Sciences (NCATS)
